# TRPML1 blocker: qHTS for Inhibitors of the Human Mucolipin Transient Receptor Potential 1 (TRPML1). Mucolipin-1 (Homo sapiens), Q9GZU1. TRPML1-inducible cells, Ca2+ dye fluorescence, FDSS; active compounds read low; inhibition of EC80 agonist-evoked calcium signal. activity change, negative = inhibition, % (test concentration not listed). 0.02% of 390,000 active. AID 624415, 2012; in the data active means activity change below about -50%; inconclusive means about -30% to -50%; inactive means above about -30%;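 further: stimulus is agonist 54-4 at its EC80 concentration; on the % scale 0 is the no-effect control and ±100 the full control effect; compound concentration not given in the record; the text of the record puts the active cut at -80%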
# Target sequence (Q9GZU1 whole entry, looked up): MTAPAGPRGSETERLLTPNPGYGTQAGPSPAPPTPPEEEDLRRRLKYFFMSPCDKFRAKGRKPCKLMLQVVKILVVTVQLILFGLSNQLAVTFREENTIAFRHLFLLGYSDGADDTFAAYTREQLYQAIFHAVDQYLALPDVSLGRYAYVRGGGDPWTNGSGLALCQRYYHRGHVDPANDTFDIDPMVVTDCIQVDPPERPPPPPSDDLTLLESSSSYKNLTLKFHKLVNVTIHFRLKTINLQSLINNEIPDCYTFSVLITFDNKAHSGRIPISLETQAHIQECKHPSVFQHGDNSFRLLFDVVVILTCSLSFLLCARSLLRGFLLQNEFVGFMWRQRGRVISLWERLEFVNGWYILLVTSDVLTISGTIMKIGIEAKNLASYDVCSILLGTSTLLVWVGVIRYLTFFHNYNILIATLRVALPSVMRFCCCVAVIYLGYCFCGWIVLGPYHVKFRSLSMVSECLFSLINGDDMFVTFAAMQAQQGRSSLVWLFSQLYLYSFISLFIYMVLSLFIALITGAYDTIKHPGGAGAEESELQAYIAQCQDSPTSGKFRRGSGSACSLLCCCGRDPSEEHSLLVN
#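 TRPML1-DL cells, Tet-induced overnight (~16 h, 37 °C) at 1,500 cells/well, were loaded with Ca8 no-wash dye plus quencher for 45-90 min at room temperature. Compounds were pinned during FDSS kinetic reading; agonist 54-4 at EC80 (4 uM final) then added.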
# gsp antag: qHTS for Antagonists of gsp, the Etiologic Mutation Responsible for Fibrous Dysplasia/McCune-Albright Syndrome: qHTS. gsp-mutant cells, cAMP HTRF, 30 min; control for the full effect not named in the record. AID 624288, 2012. 0.4% of 340,000 active. Potency, µM (titrated, usually from 76.9 µM), without a hit: top-dose activity change, negative = inhibition, usual class: inhibitors; active = falling curve of any shape with a large fitted effect; inconclusive = falling curve, mostly with a smaller effect; inactive = flat or rising curve; cell line not stated here;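 further: intracellular cAMP measured with PDE inhibitor Ro 20-1724 present during compound exposure; potency means the concentration at half of the fitted maximal effect; on the % scale 0 is the no-effect control and ±100 the full control effect; nearly all actives have a fitted effect of over 65% in size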
#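 HTRF cAMP measurement after 30 min RT detection following 30 min, 37C compound treatment alongside […] (added as 300 uM solution) in G418-selected cells seeded at 2000/well and grown 16–24 h.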
# TRPML1 agonist: qHTS for Agonists of the Human Mucolipin Transient Receptor Potential 1 (TRPML1) | activation, % (test concentration not listed) | 0.12% of 410,000 active | Mucolipin-1 (Homo sapiens), Q9GZU1 | TRPML1-expressing cells, Ca2+ dye fluorescence, FDSS; host cell line not named in the record; reference of the full effect not given here; in the data active = activation above about 50%; inconclusive = about 30% to 50%; inactive = below about 30%; further: 0% is about no effect; the text of the record puts the active cut at 80%
#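 Kinetic FDSS Ca2+ read in Tet-induced TRPML1-DL cells (ABD Ca8 dye plus quencher, 45-90 min RT loading): baseline, then compound, then 110 s agonist window; EC80 agonist 54-4 at 4uM final added afterwards for a 110 s antagonist window.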
# gsp ag: qHTS for Agonist of gsp, the Etiologic Mutation Responsible for Fibrous Dysplasia/McCune-Albright Syndrome: qHTS; gsp mutant cells, cAMP HTRF, 30 min; control for the full effect not named in the record; Potency, µM (top dose mostly 76.9 µM), without a hit: at the highest dose activation (cAMP increase), actives largely listed as activators; 0.13% of 340,000 active; AID 624287, 2012; active = well fitted activation curve with a large enough effect; inconclusive = small, poorly fitted or top-dose-only effect, or another doubt; inactive = no such curve, though single readings can be large or run the other way; cell line not stated here;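 further: phosphodiesterase inhibitor Ro 20-1724 added with compounds to block cAMP breakdown; potency means the concentration at half of the fitted maximal effect; nearly all actives have a fitted effect of over 60% in size; about a fifth of the inactives were tested at one dose only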
#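 Cells in DMEM/10% FBS with G418 were pretreated with compounds in DMSO plus […] (300 uM stock) for 30 min at 37C. cAMP was measured by HTRF (cAMP-d2 plus anti-cAMP antibody-K) after 30 min at room temperature.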
# ClpP mod: qHTS Assay for Activators of ClpP. 1.9% of 340,000 active. ATP-dependent Clp protease proteolytic subunit (Bacillus subtilis (strain 168)), P80244. purified B. subtilis ClpP, FRET peptide cleavage, 20 min. Potency, µM (series often up to 57.5 µM), for the others: top-dose activity change, negative = active; active = well fitted falling curve with a large enough effect; inconclusive = small, poorly fitted or top-dose-only effect; inactive = no such curve, though single readings can be large or run the other way; further: potency means the concentration at half of the fitted maximal effect; the source files actives as falling curves though it sought activators and does not explain the sign; nearly all actives have a fitted effect of over 65% in size; many hits overshoot -100%
# Target sequence (P80244 whole entry, looked up): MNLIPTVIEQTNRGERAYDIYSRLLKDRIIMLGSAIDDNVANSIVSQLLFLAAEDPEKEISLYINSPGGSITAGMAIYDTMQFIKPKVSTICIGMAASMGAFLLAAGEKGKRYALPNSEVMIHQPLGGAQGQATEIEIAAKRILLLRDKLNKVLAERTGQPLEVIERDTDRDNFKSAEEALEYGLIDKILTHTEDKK
#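 Purified B. subtilis ClpP, 10 microg/mL final in Tris/HCl pH8 with KCl, BSA, glycerol and Tween-20, cleaved an Abz/nitrotyrosine-quenched decapeptide. Fluorescence (ex 320, em 430) was read at 0 and 20 min at room temperature. Delta was normalized to 5.8 microM ADEP and DMSO/no-enzyme controls.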
# Menin MLL FP FL: qHTS Assay for Inhibitors Targeting the Menin-MLL Interaction in MLL Related Leukemias: Competition With Fluorescein Labeled MLL-derived Peptide; Fluorescence polarization, fluorescein-MLL peptide displacement from menin; FP activity change, % at 61.4 µM; 290,000 tested, under 10 active; AID 1766, 2009; inconclusive = falling polarisation curve, or a change in total fluorescence; inactive = total fluorescence flat and polarisation flat or rising; no compound was filed as active; the % refers to the polarisation; negative = inhibition;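 further: % of control where 0% means no effect; inhibitors lower the polarisation; unlabelled MLL peptide was the positive control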
# * = called active by the depositor; ? = inconclusive; / = not tested or not shown; [ ] = another dose, or the depositor's remark.
SMILES,TRPML1 blocker,gsp antag,TRPML1 agonist,gsp ag,ClpP mod,Menin MLL FP FL
O=C1CC(c2ccccc2)CC(O)=C1C=NCCN1CCNCC1 (configuration not stated),10,0%,0.6,17%,-0.6%,-0.1
COC(=O)c1sc(-c2ccccc2)cc1NC(=O)Nc1ccccc1Cl,?,/,-0.1,/,7.5%,/
COc1ccc(NC(=O)Nc2ccc(C(C)C)cc2)cc1,0,8%,1.1,?,/,5.5
Cc1c(-c2ccccc2)oc2c(C(=O)OCC(=O)Nc3ccc(C(N)=O)cc3)cccc2c1=O,5,-2%,0.6,-24%,1.2%,5.0
CCOc1ccc(N/C(N)=N/c2nc(C)cc(C)n2)cc1,/,0%,/,-20%,0.4%,-0.2
CC(C)(C)c1cc(C(=O)NCCN2CCCC2)cc(C(C)(C)C)c1,-14,14%,-0.8,7%[15.4 µM],/,1.1
CC(C)(C)C(=O)NCCc1nc2ccccc2n1CCCCOc1ccc(Cl)cc1,26,/,0.5,/,-7.3%,/
COc1cccc(C2C(C(=O)Nc3ccc(Cl)cc3)=C(C)Nc3nc4ccccc4n32)c1 (configuration not stated),-15,/,-0.8,/,12%,/
Cc1cc(C)cc(Oc2ccc(N)cc2)c1,-9,8%,1.5,0%,-1.6%,-1.3
O=C(CCC(=O)OCc1cccc([N+](=O)[O-])c1)Nc1ccccc1Cl,5,14%,0.8,-2%[15.4 µM],/,-7.5
CNS(=O)(=O)c1cccc(C(=O)OCc2cc(=O)n3cc(Br)ccc3n2)c1,7,-1%,1.3,?,-26%,9.7
CC(=O)N1c2ccc(S(=O)(=O)N3CCC(C(=O)Nc4ccccn4)CC3)cc2CC1C (configuration not stated),14,-4%,-0.5,?,2.1%,4.0
Cc1sc2nc(C(C)C)oc(=O)c2c1C,5,9%,0.5,0%,-0.2%,4.2
O=Cc1ccc(N2N=C(c3ccccc3)CC2c2ccccc2)cc1 (configuration not stated),/,-21%,/,25%,3.8%,?
COc1ccc(CNS(=O)(=O)c2ccc(N3CCCC3)cc2Br)cc1,-10,-15%,-1.5,/,-1.6%,/
O=[N+]([O-])c1ccc(OCc2n[nH]c(=S)n2-c2ccccc2)cc1,1,-28%,-0.1,-5%[15.4 µM],-0.7%,1.5
Cc1ncoc1C(=O)N1CCCC(C(=O)Nc2cccc(-c3ccc(F)cc3)c2)C1 (configuration not stated),-8,-7%,53*,?,0.4%,/
O=C(NN1CCOCC1)c1c(-c2ccccc2)sc2ccccc12,-4,-1%,-0.7,0%,-3.5%,/
Fc1ccc(-c2nc(-c3cccs3)[nH]c2-c2ccc(F)cc2)cc1,-6,?,0.3,-11%,?,2.0
COc1ccc(S(=O)(=O)N2CCOCC2)cc1C(=O)Nc1nc2ccccc2s1,12,17%,1.1,-4%,-6.3%,-0.2

# Given with bars between the fields: 2 of the compounds above
structure | TRPML1 blocker | gsp antag | TRPML1 agonist | gsp ag | ClpP mod | Menin MLL FP FL
CCOc1ccc(N/C(N)=N/c2nc(C)cc(C)n2)cc1 | / | 0% | / | -20% | 0.4% | -0.2
O=C1CC(c2ccccc2)CC(O)=C1C=NCCN1CCNCC1 (configuration not stated) | 10 | 0% | 0.6 | 17% | -0.6% | -0.1

# Next structures follow:
SMILES,TRPML1 blocker,gsp antag,TRPML1 agonist,gsp ag,ClpP mod,Menin MLL FP FL
CC(Nc1nc(N2CCNCC2)nc2ccccc12)c1ccccc1 (configuration not stated),16,7%,0.6,-13%[15.4 µM],/,-0.8
CCc1nnc(SCC(=O)NC2CCCCC2)nc1CC,12,1%,-0.1,?,-1.4%,1.7
CCc1ccc(NC(=O)CSc2nnc(-c3cc4occc4n3C)n2-c2ccccc2C)cc1,30,/,1.9,/,-5.7%,/
Cc1cc(C)cc(NC(=O)CSCc2cnn(-c3ccccc3)c2-n2cccc2)c1,-10,?,1.2,-6%,0.5%,4.8
CCc1ccc2c(COC(=O)c3n[nH]c4ccccc34)cc(=O)oc2c1,-6,-16%,2.3,12%,23%,5.4
Cc1ccc(S(=O)(=O)N2CCC(C(=O)Nc3nnc(C)s3)CC2)cc1,-1,4%,-0.2,-3%,/,1.7
COc1ccc(C(=O)Nc2sc(C(=O)N(C)C)c(C)c2C#N)cc1[N+](=O)[O-],-23,-15%,0.6,11%,-3.1%,3.3
CCN(CC)c1ccc(NC(=O)c2ccc3c(c2)OCO3)c(C)c1,21,-10%,0.2,-33%,/,0.5
O=C(CSC(=S)N1CCOCC1)Nc1ncc2c(n1)CC(c1ccco1)CC2=O (configuration not stated),4,-3%,-0.6,-2%[15.4 µM],0.5%,6.1
O=C(COC(=O)CCSc1ccccc1)Nc1cc(F)ccc1F,2,3%,3.5,31%,-0.3%,-1.3
CN(C(=O)CC1C(=O)NCCN1Cc1cccc(C(F)(F)F)c1)C1CCOCC1 (configuration not stated),33,0%,-0.5,-13%,-7.5%,/
CCC1C(=O)N(c2nc(C)cc(C)n2)N=C1C (configuration not stated),20,-6%,0.6,9%,1.3%,-0.6
CNC(=O)c1cc(Nc2nnc(-c3ccc(C)c(S(N)(=O)=O)c3)c3ccccc23)ccc1OC,4,-14%,0.5,-14%[15.4 µM],-3.5%,0.1
Cc1nnc(N2CCOCC2)c2nn(-c3cccc(Cl)c3)c(C)c12,21,-7%,2.1,?,?,?
COc1ccccc1CN1CCN(C(=O)c2cccc3ccccc23)CC1,20,11%,4.6,-42%[inhibitor],-4.1%,/
O=C1CS/C(=N/N=C/c2ccncc2)N1,-6,-3%,-0.2,-6%[15.4 µM],/,-2.2
CC(C)Cn1cnc2c(SCc3ccccc3Cl)nc(N)nc21,-21,-6%,1.1,-21%,-9.7%,/
O=C(NCCc1ccc([N+](=O)[O-])cc1)c1ccccc1,7,-9%,4.2,-6%,2.5%,13
CCOC(=O)COc1ccc2c(C#N)c3ccccn3c2c1,3,-6%,0.0,28%,?,?
CCOc1ccccc1-c1nc(-c2ccc(NC(=O)c3ccc(Br)o3)cc2)no1,1,?,-0.2,3%,-14%,2.7

# Next section, overlapping the part above by two compounds.
SMILES,TRPML1 blocker,gsp antag,TRPML1 agonist,gsp ag,ClpP mod,Menin MLL FP FL
CCOC(=O)COc1ccc2c(C#N)c3ccccn3c2c1,3,-6%,0.0,28%,?,?
CCOc1ccccc1-c1nc(-c2ccc(NC(=O)c3ccc(Br)o3)cc2)no1,1,?,-0.2,3%,-14%,2.7
CCCN(CCC)CCN1C(=O)C2C(C(=O)Nc3cccc(SC)c3)C3C=CC2(O3)C1C(=O)NC1CCCCC1 (configuration not stated),13,7%,-0.6,-31%[inhibitor],/,0.1
O=C(O)c1c[nH]c2ccc(S(=O)(=O)N3CCOCC3)cc12,54,-7%,-0.4,-52%[inhibitor],-12%,15
Cc1ccc(S(=O)(=O)n2nc(OC(=O)c3ccco3)cc2N)cc1,-3,23%,6.1,16%,0.9%,/
C(#Cc1c(-c2ccsc2)sc2ccccc12)c1ccsc1,2,-8%,0.7,7%,11%,/
CCC(CC)C(=O)NCCc1cc2c(C)ccc(C)c2[nH]c1=O,23,5%,-0.3,15%,-5.9%,-5.3
O=C(CCC1CCCN(C(=O)Cn2cnnn2)C1)NCc1ccc(F)c(F)c1 (configuration not stated),-14,-12%,0.7,-26%[15.4 µM],0.3%,5.5
O=C(OCCN1CCN(C2=NS(=O)(=O)c3ccccc32)CC1)c1ccccc1F,-6,-7%,-0.5,?,0.1%,-0.1
C[C@@H]1CN([C@@H](C)CO)C(=O)c2cc(Br)cnc2O[C@H]1CN(C)Cc1cccnc1,5,/,-0.6,18%,0.9%,/
CC1CN(C(=O)N2CCOCC2)CCN1C(=O)N1CCOCC1 (configuration not stated),-12,-8%,1.8,-2%[15.4 µM],/,-0.9
COc1ccc(CCNC(=O)CCNC(=O)c2ccc([N+](=O)[O-])cc2)cc1,7,7%,1.6,?,-0.9%,-8.0
COc1ccccc1NC(=O)CSc1nnnn1-c1ccccc1F,-13,-7%,0.4,-6%,0.2%,1.1
Cc1ccc(Cl)cc1S(=O)(=O)N1CCC(C(=O)NC2CCN(Cc3ccccc3)CC2)CC1,-5,3%,0.2,21%,/,-4.3
CS/C(=N\NC(N)=O)c1ccccc1,-5,14%,-0.4,1%,0.2%,1.0
CN(CC(=O)Nc1cccc(F)c1)C(=O)c1ccc(N2CCOCC2)c([N+](=O)[O-])c1,7,0%,0.4,6%,-1.4%,/
COc1ccc(-n2nc(C(=O)Nc3cc(C)ccn3)c3c4ccccc4n(C)c3c2=O)cc1Cl,-3,/,-0.7,/,-1.0%,/
COc1ccccc1-c1nc(C#N)c(NCCCn2ccnc2)o1,-3,-5%,1.3,0%[15.4 µM],/,4.2
C/C(=N\Nc1ccc(S(=O)(=O)N2CCOCC2)cc1[N+](=O)[O-])C(C)C,13,-2%,3.1,-3%[15.4 µM],1.6%,1.7
COc1ccc(C(=O)Nc2cc(C)on2)cc1[N+](=O)[O-],20,5%,-0.3,-6%,/,-1.0

# Seven entries drawn at random from those above:
SMILES,TRPML1 blocker,gsp antag,TRPML1 agonist,gsp ag,ClpP mod,Menin MLL FP FL
C[C@@H]1CN([C@@H](C)CO)C(=O)c2cc(Br)cnc2O[C@H]1CN(C)Cc1cccnc1,5,/,-0.6,18%,0.9%,/
O=C(O)c1c[nH]c2ccc(S(=O)(=O)N3CCOCC3)cc12,54,-7%,-0.4,-52%[inhibitor],-12%,15
CN(CC(=O)Nc1cccc(F)c1)C(=O)c1ccc(N2CCOCC2)c([N+](=O)[O-])c1,7,0%,0.4,6%,-1.4%,/
COc1ccc(-n2nc(C(=O)Nc3cc(C)ccn3)c3c4ccccc4n(C)c3c2=O)cc1Cl,-3,/,-0.7,/,-1.0%,/
COc1ccccc1-c1nc(C#N)c(NCCCn2ccnc2)o1,-3,-5%,1.3,0%[15.4 µM],/,4.2
O=C(CCC1CCCN(C(=O)Cn2cnnn2)C1)NCc1ccc(F)c(F)c1 (configuration not stated),-14,-12%,0.7,-26%[15.4 µM],0.3%,5.5
COc1ccc(C(=O)Nc2cc(C)on2)cc1[N+](=O)[O-],20,5%,-0.3,-6%,/,-1.0

# Bioassay records from PubChem.
